Screening results deposited in PubChem by National Center for Advancing Translational Sciences (NCATS).
GLA inh pH 4.5 = blocks human alpha-galactosidase A at pH 4.5 | P06280 | purified enzyme, 4-MU-alpha-Gal fluorescence, pH 4.5 | activity change, negative = inhibition, % at 105 µM | 230,000 tested, under 10 active | AID 1467; inconclusive = small, poorly fitted or top-dose-only inhibition, or a rising curve; inactive = flat fitted curve, though single readings scatter; no compound was filed as active;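 note: 0% = full activity with enzyme and -100% = basal without enzyme; dose as in the result columns while the protocol names 77 µM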
Target sequence (P06280 whole entry, looked up): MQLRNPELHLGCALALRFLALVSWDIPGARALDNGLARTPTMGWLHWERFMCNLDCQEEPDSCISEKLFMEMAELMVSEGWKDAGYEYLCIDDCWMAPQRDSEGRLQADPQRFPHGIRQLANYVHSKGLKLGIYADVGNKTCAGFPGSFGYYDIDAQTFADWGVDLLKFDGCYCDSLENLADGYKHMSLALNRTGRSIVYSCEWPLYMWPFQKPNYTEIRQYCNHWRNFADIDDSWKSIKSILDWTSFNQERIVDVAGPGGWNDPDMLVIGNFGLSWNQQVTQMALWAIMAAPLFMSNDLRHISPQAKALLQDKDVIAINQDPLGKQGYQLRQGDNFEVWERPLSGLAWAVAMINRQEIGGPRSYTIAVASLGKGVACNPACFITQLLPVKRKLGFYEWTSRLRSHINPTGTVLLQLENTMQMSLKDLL
miR-21 FLuc = raises the signal of a miR-21 reporter. HeLa miR-21 FLuc reporter, luciferase, 48 h. Potency, µM (highest dose often 38.3 µM), for inactives: top-dose reporter change, positive = more light. 340,000 tested, under 10 active; active = well fitted rising curve with a large enough effect; inconclusive = small, poorly fitted or top-dose-only effect; inactive = no such curve, though single readings can be large or run the other way;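 note: % of control where 0% means no effect; miR-21 action dims this reporter so a rising signal means less miR-21 action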
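HeLa miR-21-FLuc reporter line, endogenous miR-21; 2000 cells/well in DMEM/10% FBS; compound titration up to ~40uM final, 48 h, 37 degree Celsius; luciferase detection reagent, 15 min lysis, CCD luminescence.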
Rango complex inh = prevents formation of the Rango-importin beta complex | Q14974 | Rango CFP/YFP FRET sensor + importin beta, 45 min | Potency, µM (titrated, usually from 92.2 µM), for the others: at the highest dose inhibition of complex formation | 340,000 tested, 0.031% active | AID 540263; active = rising FRET ratio curve, often small or poorly fitted; inconclusive = mostly compound fluorescence or quenching in the first reads; inactive = flat curves in all reads;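 note: potency is the fitted concentration of half-maximal effect; 0% = DMSO wells and 100% = buffer wells lacking importin beta; nearly all actives have a fitted effect of over 15% in size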
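Inhibition scored from the CFP 486 nm/YFP 530 nm FRET ratio 45 min after adding 0.125 microM importin beta to 50 nM Rango biosensor preincubated 5 min with compound (room temperature, PBS with DTT, Tween-20, BSA). No-importin wells as positive control.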
Rango dissoc inh = inhibition of RanGTP-driven Rango-importin beta dissociation; O95149+P62826; Potency, µM (top dose mostly 46.1 µM), inactives show at the top dose activity change, negative = inhibition; 340,000 tested, 0.071% active; AID 540253; Biochemical FRET Rango-importin beta, RanGTP-induced dissociation; active means falling FRET ratio curve, often poorly fitted, with flat reads before Ran was added; inconclusive means other falling curves, or compound fluorescence or quenching; inactive means flat or rising ratio curve;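 note: potency is the fitted concentration of half-maximal effect; % of control where 0% means no effect; nearly all actives have a fitted effect of over 45% in size; -100% = wells without RanGTP and RCC1; the record marks most hits as doubtful in a second field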
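Rango FRET biosensor (snurportin-1 IBB flanked by N-terminal EYFP and C-terminal CFP10) at 0.1 uM, with 0.25 uM importin beta in PBS, 1mM DTT, 0.02% Tween-20, 0.1% BSA. 0.6 uM Ran, 2mM GTP and 0.2 uM RCC1 were then added for 45 min at room temperature. Inhibition read as loss of FRET rise.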
* hit, by the source's call; u = inconclusive; x = no result given; & = joins results of further samples; [ ] = dose if it differs, or a comment. This is a subset; count on the stated rates, not on these rows.

miR-21 FLuc	Rango dissoc inh	GLA inh pH 4.5	Rango complex inh	Structure
23%	0%	-10	-0.9%	COc1cc(-c2cc(C(=O)Nc3ccc(O)cc3)c3ccccc3n2)cc(OC)c1OC
-6%	8%	-5	-2.0%	COC(=O)Cn1c(=NC(=O)CSC(C)=O)sc2ccccc21
-2%	-1%	7	-4.9%	Cc1ccc(NC(=O)C2CC(=O)OC23CCOC(C)(C)C3)cc1 (centres undefined)
-3%	0%	-10	-0.1%	COC(=O)COC(=O)c1ccc(O)cc1
-5%	2%	8	1.2%	Nc1nc(N2CCN(Cc3ccccc3)CC2)n[nH]1
-5%	-1%	19	-3.4%	CC(=O)/C(=N/Nc1ccc(Br)cc1)Sc1cccc2cccnc12
x	-12%	x	3.3%	CCN1CCN(c2ccc(S(=O)(=O)N3CCCCC3)cc2NC(=O)/C=C/c2ccc(OC)c(OC)c2)CC1
-16%	-4%	1	0.4%	CCCCn1c(NCc2ccccn2)nc2ccccc21
-8%	-7%	-1	-2.3%	O=C(Nc1cccnc1)C1(c2ccccc2)CCCC1
x	-3%	x	-1.0%	COCCN(C(=O)C(C)N1C(=O)c2ccccc2C1=O)c1c(N)n(CC(C)C)c(=O)[nH]c1=O (centres undefined)
-2%	0%	x	-4.7%	Cc1ccccc1CNC(=O)c1ccc2ccccc2n1
-2%	-14%	9	0.8%	CCOC(=O)C1=C(C)Nc2ccccc2N=C1NC(=O)Cc1ccc(OC)cc1
1%	19%	x	2.5%	O=C(Nc1c2c(nn1-c1ccc([N+](=O)[O-])cc1)CS(=O)(=O)C2)C1CC1
-15%	16%	3	-1.3%	COc1ccc(-c2[nH]c(-c3ccc(C(=O)O)cc3)nc2-c2ccccc2)cc1
-5%	0%	x	-1.3%	Cc1ccc(CNc2ccc3c(c2)nc(C)n3C)cc1
-2%	19%	-9	1.4%	CCSc1nc2ccc(C)cc2cc1C#N
-28%	1%	x	-3.0%	COc1cccc(CN(C)C(=O)c2sccc2-c2ccccc2)c1OC
-8%	9%	3	-3.5%	CC(C)NC(=O)C1(c2ccccc2)CC1(Cl)Cl (centres undefined)
4%	-13%	-3	0.3%	CN(C)C(=O)c1ccccc1-c1ccccc1
-3%	-8%	5	-1.8%	COc1ccccc1/C=C/C1NC(=O)NC(C)=C1C(=O)OC(C)C (centres undefined)
0%	-2%	4	-0.9%	COc1ccc(NC(=S)NCCN2CCOCC2)cc1
-4%	2%	3	-3.5%	COc1cccc(CNC(=O)C2CCCN(c3nn4c(=O)cc(C)nc4s3)C2)c1 (centres undefined)
-1%	-10%	-1&-7	u	COC(=O)[C@@H]1C[C@H]2CC[C@H](O)C[C@H]2N1Cc1ccc(N2CCN(C)CC2)cc1
0%	18%	4	-4.0%	C=CCN1CCN(C(c2ccccc2)c2nnnn2CCC(C)C)CC1 (centres undefined)
x	1%	-9	0.9%	Cc1ccc(-c2c(C)cc3oc(=O)cc(-c4ccccc4)c3c2C)cc1
0%	-1%	-6	-1.1%	CCOc1cc(C2CC(=O)NC3=C2C(=O)C(C(=O)OC)C(C)C3)cc(Br)c1O (centres undefined)
-1%	4%	-5	4.6%	CCOc1ccccc1Nc1nc(N)nc(CN2CCCCC2C)n1 (centres undefined)
x	2%	x	0.6%	CCCCCCCCCCCCN1[C@@H](CC(=O)OC)c2cc(C(F)(F)F)ccc2S1(=O)=O
-3%	26%	-6	0.8%	Cc1cc(/C=N/NC(=O)c2c(Br)cnn2C)c(C)n1-c1cccc(Br)c1
x	-13%	-1	u	O=c1[nH]c(=O)c2nc3ccccc3nc2[nH]1

Molecules listed so far that contain an NH in an aromatic ring, in the order listed:
miR-21 FLuc	Rango dissoc inh	GLA inh pH 4.5	Rango complex inh	Structure
-5%	2%	8	1.2%	Nc1nc(N2CCN(Cc3ccccc3)CC2)n[nH]1
x	-3%	x	-1.0%	COCCN(C(=O)C(C)N1C(=O)c2ccccc2C1=O)c1c(N)n(CC(C)C)c(=O)[nH]c1=O (centres undefined)
-15%	16%	3	-1.3%	COc1ccc(-c2[nH]c(-c3ccc(C(=O)O)cc3)nc2-c2ccccc2)cc1
x	-13%	-1	u	O=c1[nH]c(=O)c2nc3ccccc3nc2[nH]1

Further structures:
miR-21 FLuc	Rango dissoc inh	GLA inh pH 4.5	Rango complex inh	Structure
x	0%	x	-1.9%	Cc1ccc(NC(=O)Cc2nc(CN(C)CC(=O)Nc3ccc(C)cc3)cs2)cc1
-1%	x	-24	x	CC(C)n1nc(C(=O)N2CCN(S(=O)(=O)c3cccs3)CC2)c2ccccc2c1=O
-22%	u	-3	u	Cc1cccc(NC(=O)CN2C(=O)N/C(=C/c3cc(C)n(-c4ccncc4)c3C)C2=O)c1
0%	19%	-5	0.6%	COc1cccc(CN(CC2CCCO2)S(=O)(=O)c2ccc(S(=O)(=O)N(C)C)cc2)c1 (centres undefined)
x	1%	x	-0.8%	O=C(COC(=O)c1ccc(S(=O)(=O)C(F)F)cc1)Nc1ccccc1C(=O)NC1CC1
-8%	u	8	u	N#Cc1cc2cc3c(cc2nc1NCCNC(=S)NCCCN1CCOCC1)OCO3
-1%	-3%	0	-2.9%	Oc1cccc2cc3cccc(O)c3c(O)c12
-7%	-12%	-11	-2.6%	CCn1c(CCC(=O)Nc2cc(F)ccc2C)nc2cc(S(=O)(=O)N(C)C)ccc21
6%	-11%	29	5.0%	CCCc1cc(C(F)(F)F)c(C#N)c(=O)[nH]1
-1%	0%	3	0.5%	CCOC(=O)C(=CNc1cc(C)ccc1-n1cccc1)C(=O)OCC
-8%	8%	x	-3.9%	CCCSc1ccccc1C(=O)N1CCN(C(=O)c2ccco2)CC1
-1%	1%	x	u	COc1ccc(C(=O)Nc2ccc(NC(=O)c3cc(OC)c(OC)c(OC)c3)cn2)cc1
7%	15%	-1	-1.0%	CCCc1ccc(S(=O)(=O)NCCc2ccncc2)cc1
x	7%	x	3.0%	OCC1OC(n2cnc3c(N4CCCCC4)ncnc32)C(O)C1O (centres undefined)
-17%	2%	-25	-1.2%	N#Cc1cc(N)ccc1Sc1ccccc1
2%	u	0	2.9%	CCCCN1C(=O)NC(NC(=O)C2CC2)(C(F)(F)F)C1=O (centres undefined)
0%	-4%	0	0.0%	Cc1ccc(S(=O)(=O)NCCc2nnc3ccc(SCc4cccnc4)nn23)cc1
2%	23%	5	3.4%	COc1ccc(CNC(=O)COC(=O)Cc2ccsc2)cc1
-5%	-7%	-2	-1.4%	CC(C)Sc1nnc(CNC(=O)C23CC4CC(CC(C4)C2)C3)n1C1CCCCC1
7%	21%	x	-4.1%	CCOC(=O)c1c(C)[nH]c(C(=O)N/N=C/c2ccc(OC)c(OC)c2)c1C
-13%	8%	x	-0.5%	O=C(Nc1ccc(N2CCOCC2)c(Cl)c1)c1ccc(-n2cnnc2)cc1
2%	14%	-21	3.9%	COc1ccc(N2CCN(C(=O)CN(c3cccc(Br)c3)S(C)(=O)=O)CC2)cc1
0%	1%	-3	5.5%	O=C(O)/C=C/C(=O)Nc1ccc(-n2ccc(C(F)(F)F)n2)cc1
x	10%	x	0.4%	CCCCn1c(N)c(N(CC)C(=O)c2ccc(-c3ccc(Cl)cc3)o2)c(=O)[nH]c1=O
3%	-7%	x	-0.4%	O=C(NC1CCCC1)c1ccc(CS(=O)(=O)c2ccc(Cl)cc2)o1
x	6%	x	2.6%	O=C(Nc1ccc([N+](=O)[O-])c(NC(=O)c2cccnc2)c1)c1cccnc1
6%	5%	2	3.3%	Cc1ccc(S(=O)(=O)Nc2ccc3c(c2)CCC3)cc1C
10%	52%	-15	-5.9%	O=[N+]([O-])c1cc(Cl)cc(/C=N/NC(=S)Nc2ccc(S(=O)(=O)N3CCOCC3)cc2)c1O
-7%	15%	-2	-1.1%	COc1ccc(/C=N/NC(=O)c2cccc(OC(F)(F)C(F)F)c2)cc1O
-10%	23%	x	3.2%	COC(=O)c1ccc(NS(=O)(=O)c2ccc(-c3cc(C)no3)s2)cc1

miR-21 FLuc	Rango dissoc inh	GLA inh pH 4.5	Rango complex inh	Structure
2%	14%	x	1.2%	COc1cccc(OCCn2cc(C=O)c3ccccc32)c1
-2%	16%	5[21.1 µM]	3.3%	Cn1cccc1CNC(=S)Nc1ccccc1Cl
x	-6%	x	7.2%	Cc1ccccc1OCCC(=O)OCC(=O)NC1CCCCC1
-4%	-8%	-3	-4.9%	Cc1cc(C(=O)Cn2nc(C(=O)O)c3ccccc3c2=O)c(C)n1C1CC1
10%	u	-2	3.9%	Fc1ccc(CSc2nncn2NC/C=C/c2ccccc2)cc1
-1%	-13%	x	1.2%	COc1ccc(C(O)P(=O)(OCC(C)C)c2ccc(N(C)C)cc2)c(OC)c1 (centres undefined)
x	u	x	u	N#C/C(=C\c1ccc(O)c(O)c1)C(=O)N1CCc2ccccc21
x	-12%	x	0.4%	Nc1nnc(SCC(=O)Nc2ccc(N3CCOCC3)cc2)s1
-11%	2%	x	-0.8%	Cc1ccc(-n2ncc3c(=O)n(CC(N)=O)cnc32)cc1C
-4%	-4%	0	-0.3%	CCOC(=O)N1CCN(CC(O)COc2ccccc2C(C)CC)CC1 (centres undefined)
-51%	22%	-24	6.0%	NC(=O)c1ccccc1NC(=O)/C=C/c1ccccc1
0%	5%	-3	-1.1%	CC(C)(C)NC(=O)Nc1ccc(Cn2cc(C(F)(F)F)ccc2=O)cc1
-45%	0%	-11	0.2%	CC(C)c1ccc2oc(-c3ccc(NC(=O)c4ncn[nH]4)cc3)nc2c1
11%	1%	-1	-3.7%	COC(=O)c1ccc(CSc2nnc(Nc3ccccc3OC)s2)o1
x	5%	x	0.0%	O=C(c1cccs1)N1CCN(c2nc3ccc([N+](=O)[O-])cc3s2)CC1
-6%	-8%	-2	0.1%	COc1ccc(C(=O)Nc2ncc3c(n2)CC(c2ccco2)CC3=O)cc1 (centres undefined)
15%	-5%	-9	5.5%	O=C(Nc1ccc(Cl)c(Cl)c1)Nc1ccccc1C(=O)O
-8%	-10%	-9	0.0%	CCc1ccc(CN(C)CC(=O)Nc2sccc2C#N)cc1
-2%	u	-2	1.2%	c1ccc2c3c(c(CN4CCCC4)cc2c1)COC3
x	1%	x	2.6%	O=C(O)c1ccc(Cn2cnc3c(=S)nc[nH]c32)cc1
2%	-1%	x	-3.9%	Cc1cc(N2CCCC2)ccc1NC(=O)CN1C(=O)NC(C)(c2ccccc2)C1=O (centres undefined)
-1%	3%	6	-1.6%	COc1ccc(-c2ccc(S(=O)(=O)NCC3CCCO3)cc2)cc1 (centres undefined)
-3%	0%	2	0.7%	O=C(Cc1ccccc1F)OCC(=O)N1CCN(C(=O)c2ccco2)CC1
-2%	-17%	-1	8.0%	Nc1ccc2nc(CCCCCCc3nc4ccc(N)cc4[nH]3)[nH]c2c1
0%	2%	0	-0.3%	COc1cc(C(=O)OCC(=O)Nc2ccc(SC(F)F)cc2)cc(OC)c1OC
-15%	3%	-3	3.5%	CCc1cc(C(c2ccc(OC)c(OC)c2)N2CCOCC2)c(NC(=O)c2ccccc2)s1 (centres undefined)
-5%&-8%	7%	x	-2.7%	CSc1cccc(NC(=O)Cn2cnc(S(=O)(=O)N3CCCC3)c2)c1
0%	2%	2	-3.7%	COc1ccc(/C=N/n2cnc3c([nH]c4ccc(Br)cc43)c2=O)cc1CN1CCOCC1
-9%	2%	1	u	CN(C)S(=O)(=O)c1ccc(C(=O)NC(=O)CSc2ccccc2)cc1
1%	13%	-10	0.1%	S=c1[nH]nc(-c2cccs2)n1/N=C/c1cn(-c2ccccc2)nc1-c1ccc(Cl)cc1
